Bioassay records from PubChem BioAssay.
Vif A3G = inhibitors of Vif binding to APOBEC3G peptide, primary screen, biochemical, TR-FRET, GST-Vif 1-94, biotin-A3G peptide, dose response retest (AID 1117319); inhibition, %, or IC50 in µM where a hit was titrated; actives 0.57% (n = 260,000); TR-FRET GST-Vif / biotin-A3G peptide binding; higher % means a stronger effect; test concentration not given here; strong numbers were not always called active;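 active = above the screen mean plus three standard deviations and confirmed in dose response; inconclusive = results disagree or hit not tested in dose response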;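 also: Vif residues 1-94 fused to GST binding biotinylated APOBEC3G peptide 110-148; 0% = full assay without inhibitor and 100% = GST in place of GST-Vif; retest series ran down from 100 µM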
rRNA inh HTS = selective bacterial rRNA inhibition in E. coli; E. coli WT GFP vs humanized-ribosome RFP mutants, fluorescence, 24 h; hits give low values; DMSO median 0, no signal -100; GFP signal change (wild-type ribosome), % (no concentration beside the values); actives 1.6% (n = 350,000); AID 720706;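 active = significant combined selectivity score with lowered wild-type GFP, culture density cut under 30%, mutant RFP and density less affected; inactive = any of these conditions unmet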; also: one replicate is shown; some compounds called inactive have numbers as strong as hits
RanGTP-Impb inh = disruptors of Ran-importin-beta complex formation – biochemical, FRET, CFP-Ran, YFP-importin-beta, homogeneous, primary screen; actives 1.1% (n = 300,000); inhibition, % (test concentration not listed); cell-free CFP-Ran/YFP-importin-beta FRET ratio;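 active = most replicates above 15%; inconclusive = exactly half above 15%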;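 also: 0% = DMSO wells and 100% = Ran loaded with GDP instead of GTP; wells of about 40 µL received 100 nL stock; the first replicate is given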
A1 inh = inhibitors of the anti-apoptotic protein A1, read as caspase activation | MEF A1-2A-BIM cells, Caspase-Glo 3/7 luminescence, 3 h; percent of clofoctol response, vehicle zero | caspase activation, % (test concentration not listed) | actives 0.066% (n = 330,000) | AID 2462;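 active = over half of replicate activation scores above 10%, or exactly half above 10 with the replicate mean above 10; inconclusive = replicate mean below 10 yet half the replicates above 10; inactive = over half of replicates below 10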;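 also: wells of about 30 µL received 50 nL stock; many hits fall short of the cut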
Calb FLC = C. albicans growth modulation with fluconazole; C. albicans CaCi-2 (fluconazole-resistant clinical isolate) + fluconazole, Alamar Blue growth, 48 h; actives 0.57% (n = 300,000); growth inhibition, % (no concentration beside the values);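 active = most replicates above 75%; inconclusive = exactly half above 75%; inactive = most below 75%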;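 also: all wells also contain fluconazole at 8 µg/ml as a sub-toxic cotreatment; 0% = median of DMSO wells and 100% = median of geldanamycin control wells; wells of about 8 µL received 7.5 nL stock; the first replicate is given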
T cruzi inh = blocks replication of Trypanosoma cruzi. T. cruzi beta-gal in NIH3T3, luminescence, 90 h. actives 1.4% (n = 300,000). inhibition, % (concentration not given with the values). AID 1885;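 active = mean inhibition across valid replicates above about 55%, limit read from the data; inconclusive = mean below that limit but half or more replicates reach it; inactive = mean below it, under half of replicates reach it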;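 also: signal also drops with host cell toxicity which is not excluded here; 0% = plate median of DMSO wells and 100% = zero luminescence signal; higher percent means less beta-gal luminescence so fewer parasites; stock transfer was 50 nL into about 50 µL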
Beta cell apopt = beta cell apoptosis inhibition; AID 435005; INS-1E cytokine-induced death, ATP luminescence, 48 h; percent of positive-control rescue, neutral wells zero; protection from apoptosis, % (no concentration beside the values); actives 0.8% (n = 300,000);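 active = all replicates at 75% or more, or half of them and the mean; inconclusive = half reach 75% but not the mean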;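 also: 0% = cytokine-treated negative control wells and 100% = positive control rescue; higher means more ATP so stronger rescue from cytokine killing; wells of about 40 µL received 100 nL stock; the first replicate is given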
AF4-AF9 inh = inhibitors of human MLL-AF4/AF9 interaction | AlphaScreen, biotin-AF4 peptide binding to FLAG-AF9 | actives 0.47% (n = 350,000) | inhibition, % at 10 µM | AID 651704;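 active = every replicate reaching a set inhibition limit, whatever the replicate mean, cut at about 25% in these data; inconclusive = mean inhibition reaches that limit but some replicates miss it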;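 also: 0% = plate neutral control median and 100% = total signal loss; the record names both 10 and 1 µM as test concentration; the first replicate is given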
Target sequence (P42568 whole entry, looked up): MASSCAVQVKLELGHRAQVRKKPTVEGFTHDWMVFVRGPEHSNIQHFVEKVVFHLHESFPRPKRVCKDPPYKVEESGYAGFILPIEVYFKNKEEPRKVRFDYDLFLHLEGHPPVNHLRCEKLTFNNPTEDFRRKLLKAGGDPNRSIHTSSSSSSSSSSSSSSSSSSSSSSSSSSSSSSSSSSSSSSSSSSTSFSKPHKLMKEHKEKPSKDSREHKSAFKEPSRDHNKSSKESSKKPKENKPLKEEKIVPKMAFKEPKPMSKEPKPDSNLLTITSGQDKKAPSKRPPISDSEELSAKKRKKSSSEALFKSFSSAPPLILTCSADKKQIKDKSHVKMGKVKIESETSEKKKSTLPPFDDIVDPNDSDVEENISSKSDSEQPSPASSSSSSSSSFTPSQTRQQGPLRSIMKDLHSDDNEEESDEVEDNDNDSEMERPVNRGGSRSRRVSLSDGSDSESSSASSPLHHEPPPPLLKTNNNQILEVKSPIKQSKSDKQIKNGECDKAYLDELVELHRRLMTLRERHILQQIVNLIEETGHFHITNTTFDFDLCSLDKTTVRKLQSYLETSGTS
rRNA inh HTS OD600 = recorded beside rRNA inh HTS, whose call it bears; OD600 change, %; measured here: OD600 growth;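 optical density of the mix in the first replicate; 0 = DMSO median and -100 = no signal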
rRNA inh HTS RFP = second read-out of rRNA inh HTS, no call of its own (marks repeat the call); RFP signal change, %; measured here: RFP humanized mutant strains;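 first replicate; 0 = DMSO median and -100 = no signal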
An asterisk follows results filed as active; u = inconclusive; x = no result given; & = joins results of further samples. These rows are one share of the data; rates above refer to the full screens.

Preview (two entries):
SMILES	Vif A3G	rRNA inh HTS	rRNA inh HTS OD600	rRNA inh HTS RFP	RanGTP-Impb inh	A1 inh	Calb FLC	T cruzi inh	Beta cell apopt	AF4-AF9 inh
Cc1oc2cc(O)ccc2c(=O)c1Oc1ccccc1	-3%	x	x	x	6.6	-0.2	-8	-10	x	x
COC(=O)c1cccc(COC(=O)c2ccc(CS(=O)(=O)c3ccc(C)cc3)cc2)c1	0%	x	x	x	1.3	-0.5	-2	1	-1	x

The listing, previewed entries included:
SMILES	Vif A3G	rRNA inh HTS	rRNA inh HTS OD600	rRNA inh HTS RFP	RanGTP-Impb inh	A1 inh	Calb FLC	T cruzi inh	Beta cell apopt	AF4-AF9 inh
Cc1oc2cc(O)ccc2c(=O)c1Oc1ccccc1	-3%	x	x	x	6.6	-0.2	-8	-10	x	x
COC(=O)c1cccc(COC(=O)c2ccc(CS(=O)(=O)c3ccc(C)cc3)cc2)c1	0%	x	x	x	1.3	-0.5	-2	1	-1	x
CC1(C)CC(=O)C2=C(C1)N(c1ccccc1)C(=O)C2(O)C(F)(F)F (stereo unspecified)	27%	6	14	2.9	1.7	0.1	-2	6	-2	2.0
O=C(NCC(c1cccnc1)N1CCN(c2ccccc2)CC1)c1ccco1 (stereo unspecified)	x	x	x	x	-0.5	-0.2	4	65*	x	x
CCOC(=O)N1CCN(C(=O)COC(=O)C2CCN(S(=O)(=O)c3ccc(C)c(C)c3)CC2)CC1	-9%	1	3	-2.0	0.2	1.1	-8	-8	-2	-26
C/C(=N\NC(N)=S)c1ccc(-n2ccnc2)cc1	8%	-25	-11	13	u	-0.1	-2	7	-9	1.2
O=C(Cn1cnc2c(OCc3ccccc3)ncnc21)NCc1nc2ccccc2[nH]1	-10%	-8	-2	0.9	x	1.5	x	x	-9	-4.7
COc1ccc(-c2cc(-c3ccccc3)nc(SCC(=O)Nc3ncc(C)s3)c2C#N)cc1	-27%	11	3	-0.6	-4.7	-0.2	u	41	15	3.9
O=C(Cc1ccccc1)NCC(=O)N/N=C/c1ccc(C(=O)O)cc1	1%	17	11	2.0	1.1	0.0	-4	-3	-5	-1.2
CC(C)(C)C(=O)CN1CCN(C2c3ccccc3-c3ccccc32)CC1	-3%	-2	-1	2.8	6.8	0.5	-43	7	0	x
COc1cc(/C=N/S(=O)(=O)CCc2ccccc2)cc(OC)c1O	x	11	12	2.4	-3.6	0.4	-6	-9	-16	0.5
COc1cccc(NS(=O)(=O)NC(=O)c2c(C)[nH]c3ccccc23)c1	0%	1	9	-1.3	0.5	-0.9	0	7	-6	2.1
O=C1C=CC(=O)N1CCNc1ncc(C(F)(F)F)cc1Cl	x	8	2	-3.4	0.5	x	-22	57*	x	13
COc1cccc(CN2CC(C(=O)NCCCc3ccncc3)CCC2=O)c1 (stereo unspecified)	x	6	8	0.9	-4.7	-0.1	8	-19	-1	-0.5
CC1=NNC(=O)C1CC(=O)N/N=C/C(Br)=C/c1ccccc1 (stereo unspecified)	-5%	-8	-16	-1.9	3.5	-0.6	15	-6	4	1.4
O=C(CC1Oc2ccccc2NC1=O)NCCCN1CCOCC1 (stereo unspecified)	-5%	4	2	-1.6	0.9	1.1	-10	-3	x	-2.7
COc1ccc(CC(=O)NC(C)(C)C)cc1S(=O)(=O)N1CCOCC1	-2%	x	x	x	-0.2	0.1	9	-5	-3	x
O=C1CCc2cc(S(=O)(=O)NCc3ccc(F)cc3)cc3c2N1CC3	-5%	-3	-7	-3.2	3.4	x	-8	-12	x	1.1
CCn1c(SCC(=O)NC(=O)NCc2ccco2)nnc1-c1cccs1	-6%	x	x	x	-0.2	-0.2	15	1	x	x
CCN(C(=O)CSc1nc2cc(C(=O)OC)ccc2c(=O)n1Cc1ccco1)c1cccc(C)c1	-1%&4%	x	x	x	u	0.5	30	25	3	x

2 compounds from above, reduced to Calb FLC:
smiles	Calb FLC
O=C(NCC(c1cccnc1)N1CCN(c2ccccc2)CC1)c1ccco1 (stereo unspecified)	4
CCOC(=O)N1CCN(C(=O)COC(=O)C2CCN(S(=O)(=O)c3ccc(C)c(C)c3)CC2)CC1	-8

(further entries)
SMILES	Vif A3G	rRNA inh HTS	rRNA inh HTS OD600	rRNA inh HTS RFP	RanGTP-Impb inh	A1 inh	Calb FLC	T cruzi inh	Beta cell apopt	AF4-AF9 inh
COc1ccc(CCNC(=O)CCS(=O)(=O)Cc2ccccc2C)cc1OC	-4%	0	2	-5.4	7.0	0.0	1	0	x	-1.4
CC1CCc2c(sc3ncn4c(SCC(=O)NCc5ccco5)nnc4c23)C1 (stereo unspecified)	79%	-20*	-8.1*	-2.6*	0.0	0.0	12	10	0	2.1
COc1cc2c(cc1NC(=O)C(C)OC(=O)C1CC(=O)N(Cc3ccco3)C1)oc1ccccc12 (stereo unspecified)	0%&5%	x	x	x	-6.5	-0.6	3	1	1	x
COc1ccc(C2=NN(C(=O)COc3ncnc4ccccc34)C(c3ccco3)C2)cc1 (stereo unspecified)	x	10	-2	-8.4	-0.9	-0.1	-20	12	0	-1.6
CN(CCOc1ccccc1)C(=O)c1ccc2c(=O)n3c(nc2c1)CCC3	0%	11	10	0.4	0.1	0.2	-3	-11	-1	0.0
N#C/C(=C\c1c(N2CCC(C(N)=O)CC2)nc2ccccn2c1=O)S(=O)(=O)c1ccccc1	0%	x	x	x	5.8	0.1	3	-10	-2	x
Fc1ccc(C2NC(=S)NC3=C2N2CCC3CC2)cc1 (stereo unspecified)	-4%	5	11	-2.6	-5.1	0.3	-2	-15	3	-5.6
CCSc1ncc(/C=N/Nc2ccc(Cl)cc2)n1C	u	x	x	x	-1.5	-0.7	-1	34	0	x
CC(C)(C)OC(=O)NC1CONC1=O (stereo unspecified)	-8%	14	18	7.7	u	-0.1	-7	-14	-17	2.1
CCOC(=O)c1ccccc1NC(=O)CSc1nnc(Cc2cccn2C)n1-c1ccc(F)cc1	-2%&-3%	x	x	x	2.4	0.6	6	17	-3	x
Cc1cc(C)c(S(=O)(=O)N2CCOC2CNC(=O)C(=O)NCCc2ccc(S(N)(=O)=O)cc2)c(C)c1 (stereo unspecified)	x	-2	-1	-2.1	0.4	0.8	17	-4	3	-1.1
O=S(=O)(c1ccc(Br)cc1)N1CCCN(Cc2cccc(F)c2)CC1	-2%	x	x	x	-1.7	0.0	23	8	-1	x
COc1ccc2c(c1OC)C(=O)N1C2SC[C@H]1C(=O)NC1CCCCC1 (stereo partly specified)	x	11	10	6.7	6.0	1.2	-4	-3	0	-3.8
CCOCCCNC(=O)COc1ccc(OC)cc1	8%	x	x	x	5.0	-0.2	-8	-2	-7	x
COC(=O)c1ccc(Nc2cc(C)nc3ccccc23)cc1	-2%	16	0	-2.6	4.8	1.1	-2	8	20	8.5
CC1CN(S(=O)(=O)c2cccc(C(=O)OCC(=O)N3CCCCCC3)c2)CC(C)O1 (stereo unspecified)	-4%	1	-3	-2.4	x	1.6	x	x	-1	-3.9
Fc1ccc(-n2nnc(-c3nccs3)n2)cc1	23%	-42	-67	3.8	4.7	-7.0	5	-19	6	4.1
CC(C)N1C(=O)CSC1c1ccc(Br)cc1 (stereo unspecified)	-4%	x	x	x	-0.7	-0.4	-2	-12	3	-4.2
CC(NC(=O)C(c1ccccc1)c1ccccc1)C(=O)N1CCCCC1 (stereo unspecified)	x	6	-2	1.0	-1.3	1.9	-19	-6	-1	1.8
CCOC(=O)c1c2c(c(=S)n(-c3ccccc3)c1N)CCC2	u	x	x	x	-5.4	-1.1	-68	16	-1	x
CC1Cc2nc(SCC(=O)Nc3ccc(F)cc3)n(C)c(=O)c2S1 (stereo unspecified)	-5%	x	x	x	u	-0.2	4	0	-6	x
CCOc1ccc(S(=O)(=O)N(CC)CC)cc1N	x	9	3	2.4	x	0.0	7	9	-3	-5.1
CC(C)(C)C(CN1CCCC1)OC(=O)c1ccccc1 (stereo unspecified)	1%	2	15	-2.0	-4.2	-4.1	3	-2	0	-2.5
Cc1ccc(N(CCC#N)C(=O)CCl)cc1C	x	12	8	-0.7	-1.4	1.1	-11	59*	-16	-3.7
CCCNC(=O)c1ccc(N2CCC3(CC2)CC(c2ccccc2)=NO3)c(NC(=O)c2ccccc2)c1	x	x	x	x	2.9	0.3	25	45	24	x
CC(=O)Nc1cccc(-c2csc(Nc3cccc(C)n3)n2)c1	31%	-8	-2	9.4	4.9	-5.5	14	10	9	6.4
O=C(COC(=O)C1(c2ccccc2F)CCCC1)NCc1ccc2c(c1)OCO2	-5%	x	x	x	-3.2	-1.3	-39	12	1	x
Cc1cccc(-c2nc(CSCC(=O)NCCCN3CCOCC3)c(C)o2)c1	u	x	x	x	0.5	-0.1	-2	-9	-10	x
Cc1c(C(=O)Nc2nc3ccccc3[nH]2)oc2ccccc12	-11%	-55	-78	-15	u	-0.3	1	-6	22	-11
c1ccc(Oc2cccc(OCCn3cncn3)c2)cc1	1%	x	x	x	3.5	0.9	5	-12	-1	x
O=C(N/N=C/c1ccc(-c2ccccc2Cl)o1)c1ccccc1	-5%	x	x	x	21*	-0.6	8	75*	5	x
CCCCn1c(SCC(=O)Nc2cc(C(F)(F)F)ccc2Cl)nnc1C(CC)N(C)C (stereo unspecified)	-1%	-28	-60	-1.0	-2.7	0.3	-1	28	2	5.7
N#Cc1cnn2cc(CCN3CCOCC3)c(-c3ccc(F)cc3)nc12	2%	13	7	-2.1	1.7	0.9	9	-17	-7	0.0
CSCC[C@H](NC(=O)c1cc([N+](=O)[O-])ccc1Cl)c1nc2ccccc2[nH]1	x	8	5	-0.2	6.3	0.6	0	-8	-2	6.1
COc1ccc(N(CC(=O)N2CCN(Cc3ccccc3)CC2)S(C)(=O)=O)c(OC)c1	x	1	4	0.1	2.6	0.2	1	5	-1	-4.6
CCCC(C)NC(=S)Nc1cc(C)cc(C)c1 (stereo unspecified)	-7%	6	-2	-0.1	-2.5	0.2	-3	0	-2	-1.0
Cc1c(NC(=O)Nc2ccc(C#N)cc2)c(=O)n(-c2ccccc2)n1C	-4%	6	-2	0.5	-2.0	1.2	-4	-10	0	-4.9

Reprinted at random: 2 records from the list
SMILES	Vif A3G	rRNA inh HTS	rRNA inh HTS OD600	rRNA inh HTS RFP	RanGTP-Impb inh	A1 inh	Calb FLC	T cruzi inh	Beta cell apopt	AF4-AF9 inh
CCCC(C)NC(=S)Nc1cc(C)cc(C)c1 (stereo unspecified)	-7%	6	-2	-0.1	-2.5	0.2	-3	0	-2	-1.0
Cc1c(NC(=O)Nc2ccc(C#N)cc2)c(=O)n(-c2ccccc2)n1C	-4%	6	-2	0.5	-2.0	1.2	-4	-10	0	-4.9
